Bfl-1 A1 inh = caspase 3/7 activation in MEF A1-2A-BIM cells, primary screen, A1 inhibitor project, cell-based, luminescence, HTS; Caspase-Glo 3/7 luminescence, 3 h; percent of clofoctol response, vehicle zero; caspase activation, % (concentration not given with the values); hit rate 0.066% among 330,000; AID 2462, 2010;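 active = over half of replicate activation scores above 10%, or exactly half above 10 with the replicate mean above 10; inconclusive = replicate mean below 10 yet half the replicates above 10; inactive = over half of replicates below 10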;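 note: wells of about 30 µL received 50 nL stock; many hits fall short of the cut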
AF4-AF9 inh = inhibitors of AF4 peptide binding to AF9, primary screen, biochemical, AlphaScreen, biotin-AF4 peptide, FLAG-AF9, single point; inhibition, % at 10 µM; Protein AF-9 (Homo sapiens), P42568; hit rate 0.47% among 350,000;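 active = every replicate reaching a set inhibition limit, whatever the replicate mean, cut at about 25% in these data; inconclusive = mean inhibition reaches that limit but some replicates miss it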;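 note: 0% = plate neutral control median and 100% = total signal loss; the record names both 10 and 1 µM as test concentration; the first replicate is given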
Target sequence (P42568 whole entry, looked up): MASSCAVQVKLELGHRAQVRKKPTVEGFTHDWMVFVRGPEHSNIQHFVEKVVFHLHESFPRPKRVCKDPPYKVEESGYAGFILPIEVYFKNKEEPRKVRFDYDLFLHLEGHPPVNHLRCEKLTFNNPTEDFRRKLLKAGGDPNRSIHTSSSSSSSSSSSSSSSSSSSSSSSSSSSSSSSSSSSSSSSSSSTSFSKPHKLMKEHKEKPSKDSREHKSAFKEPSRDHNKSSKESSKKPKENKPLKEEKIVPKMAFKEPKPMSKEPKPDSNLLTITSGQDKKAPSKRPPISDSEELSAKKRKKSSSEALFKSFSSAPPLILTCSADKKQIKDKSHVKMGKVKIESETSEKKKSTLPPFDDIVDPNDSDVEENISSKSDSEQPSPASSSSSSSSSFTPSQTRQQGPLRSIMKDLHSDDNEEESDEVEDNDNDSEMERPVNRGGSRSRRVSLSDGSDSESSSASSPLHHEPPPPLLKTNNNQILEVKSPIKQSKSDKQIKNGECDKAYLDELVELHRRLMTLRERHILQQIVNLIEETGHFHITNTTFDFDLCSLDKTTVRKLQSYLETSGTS
T cruzi inh = inhibitors of intracellular T. cruzi growth, primary screen, luminescence, NIH3T3 host cells; T. cruzi beta-gal in NIH3T3, 90 h; inhibition, % (no concentration beside the values); hit rate 1.4% among 300,000;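 active = mean inhibition across valid replicates above about 55%, limit read from the data; inconclusive = mean below that limit but half or more replicates reach it; inactive = mean below it, under half of replicates reach it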;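 note: signal also drops with host cell toxicity which is not excluded here; 0% = plate median of DMSO wells and 100% = zero luminescence signal; higher percent means less beta-gal luminescence so fewer parasites; stock transfer was 50 nL into about 50 µL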
RanGTP-Impb inh = inhibitors of RanGTP-importin-beta interaction, primary screen, biochemical, FRET, CFP-Ran, YFP-importin-beta, homogeneous | inhibition, % (concentration not given with the values) | cell-free CFP-Ran/YFP-importin-beta FRET ratio | hit rate 1.1% among 300,000 | Ran GTPase (GTP-bound) - importin-beta complex | AID 2216, 2009;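 active = most replicates above 15%; inconclusive = exactly half above 15%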;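 note: 0% = DMSO wells and 100% = Ran loaded with GDP instead of GTP; wells of about 40 µL received 100 nL stock; the first replicate is given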
Beta cell apopt = inhibitors of cytokine-induced beta cell apoptosis, primary screen, luminescence. INS-1E cytokine-induced death, ATP luminescence, 48 h; percent of positive-control rescue, neutral wells zero. protection from apoptosis, % (no concentration beside the values). hit rate 0.8% among 300,000. AID 435005, 2010;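 active = all replicates at 75% or more, or half of them and the mean; inconclusive = half reach 75% but not the mean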;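 note: 0% = cytokine-treated negative control wells and 100% = positive control rescue; higher means more ATP so stronger rescue from cytokine killing; wells of about 40 µL received 100 nL stock; the first replicate is given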
LANA-H2A inh = blockers of LANA interaction with H2A/H2B – biochemical, FP readout, HTS, primary screen. inhibition, % (no concentration beside the values). Protein LANA1 (Human herpesvirus 8 type P (isolate GK18)), Q9QR71. hit rate 0.6% among 320,000. cell-free LANA-H2A/H2B peptide, fluorescence polarization; in the data active = inhibition mostly above about 10%, no sharp cut-off; inactive = mostly below about 6.7%;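 note: stock transfer was 7.5 nL into about 10 µL; 0% = median of vehicle wells and 100% = median of positive control wells; one replicate is shown; the record names a cut of 25% in any replicate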
Vif TR-FRET = inhibitors of Vif binding to APOBEC3G peptide, primary screen, biochemical, TR-FRET, GST-Vif 1-94, biotin-A3G peptide, dose response retest (AID 1117319). Virion infectivity factor (Human immunodeficiency virus type 1 group M subtype B (isolate …. TR-FRET GST-Vif / biotin-A3G peptide binding; higher % means a stronger effect; test concentration not given here; strong numbers were not always called active. one-dose inhibition, %; IC50 in µM for titrated hits. hit rate 0.57% among 260,000;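 active = above the screen mean plus three standard deviations and confirmed in dose response; inconclusive = results disagree or hit not tested in dose response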;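 note: Vif residues 1-94 fused to GST binding biotinylated APOBEC3G peptide 110-148; 0% = full assay without inhibitor and 100% = GST in place of GST-Vif; retest series ran down from 100 µM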
Calb FLC = C. albicans growth inhibition with fluconazole, primary screen, CaCi-2 strain, Alamar Blue fluorescence; C. albicans CaCi-2 (fluconazole-resistant clinical isolate) + fluconazole, 48 h; growth inhibition, % (test concentration not listed); hit rate 0.57% among 300,000; AID 1979, 2009;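 active = most replicates above 75%; inconclusive = exactly half above 75%; inactive = most below 75%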;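 note: all wells also contain fluconazole at 8 µg/ml as a sub-toxic cotreatment; 0% = median of DMSO wells and 100% = median of geldanamycin control wells; wells of about 8 µL received 7.5 nL stock; the first replicate is given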
The depositor's hits bear a star; ? = inconclusive; / = no result given.

SMILES	Bfl-1 A1 inh	AF4-AF9 inh	T cruzi inh	RanGTP-Impb inh	Beta cell apopt	LANA-H2A inh	Vif TR-FRET	Calb FLC
Cc1nc2cc(C(=O)N3CCc4ccccc43)ccc2n1-c1ccc(F)c(F)c1	-0.4	-3.1	-4	11	-5	-0.9	/	6
COc1ccc(CNC(=O)Cc2cn(C)c3ccccc23)c(OC)c1	-0.5	0.9	-6	-1.1	3	4.5	-2%	2
O=[N+]([O-])c1cnn(-c2nc(-c3ccco3)cc(C(F)(F)F)n2)c1	0.6	2.0	-1	-1.8	-6	-1.9	/	-9
O=C(Nc1ccc(F)c(F)c1)C1CCN(S(=O)(=O)c2cccs2)CC1	0.3	-1.9	/	/	0	9.2	-14%	/
CC1CCCN(C(=O)CSc2n[nH]c(-c3cccs3)n2)C1 (stereo not drawn)	-0.5	6.5	-1	-3.9	1	0.1	3%	-1
CC(C)(C)OC(=O)C[C@@H]1C/C=C\C[C@@H](CC(=O)NCCO)C(=O)NC[C@@H](c2ccccc2)OC1=O	0.0	2.1	/	/	-2	1.7	/	/
Cc1cc(S(=O)(=O)N2CCCC(C(=O)Nc3ccc(C(=O)O)cc3)C2)ccc1Cl (stereo not drawn)	-0.2	-0.8	-14	2.9	3	-1.1	/	14
O=C1N/C(=N\N=C\c2cccs2)SC1Cc1cccc(Cl)c1 (stereo not drawn)	-0.4	/	13	-1.8	-4	-1.3	8%	-2
CCCCN(C(=O)C(C)N1C(=O)c2ccccc2C1=O)c1c(N)n(CCCC)c(=O)[nH]c1=O (stereo not drawn)	-0.9	-0.4	/	/	-1	1.9	-7%	/
O=C(COC(=O)CCNS(=O)(=O)c1cccc(C(F)(F)F)c1)NC(=O)NC1CCCCC1	0.1	/	-7	6.8	-3	-0.1	-2%	13
CC(C)CSC1=NSC2=NC(=O)/C(=C\c3cccs3)C(=N)N12	-1.0	/	-16	4.8	20	1.1	-1%	55
Cc1ccc(C(=O)N2CCC3(CC2)Oc2ccc(Cl)cc2C(=O)C32CC(c3ccc(Cl)cc3)=NO2)s1 (stereo not drawn)	-0.6	3.4	-11	0.3	-28	0.4	?	-6
CCOc1ccc(N(C)S(=O)(=O)c2ccc3[nH]cc(C(=O)NCCOC)c(=O)c3c2)cc1	-0.7	0.4	18	-0.2	-3	-2.6	0%	6
Cc1ccc(O)c(NC(=O)C2CCCCC2)c1	-0.9	5.8	-18	-0.2	3	3.5	/	-2
O=C(Oc1c(Br)cc([N+](=O)[O-])cc1Br)c1cccnc1	-0.8	-6.3	-4	1.8	-7	0.1	23%	19
COc1cc(/C=N/NS(=O)(=O)c2ccc(C(C)(C)C)cc2)cc([N+](=O)[O-])c1O	0.8	-1.8	-3	0.9	3	-5.6	-4%	22
CCOc1cccc(/C=N/N2C(C)CCCC2C)c1O (stereo not drawn)	-0.3	-0.1	2	8.4	-6	-2.2	1%	3
O=C(C1=C[C@@H](C2CCCCC2)C[C@@H](OCc2ccc(CO)cc2)O1)N1CCN(Cc2ccc3c(c2)OCO3)CC1	-0.5	/	42	-1.6	24	3.0	-7%	17
CCOCCCNC(=S)N1CCC(C(=O)c2ccc(C)cc2)CC1	-0.3	1.0	-3	2.2	/	-0.2	/	-7
CCOC(=O)c1c(NC2=NS(=O)(=O)c3ccccc32)sc2c1CCC(C)C2 (stereo not drawn)	0.2	/	11	1.8	-3	-2.8	-7%	2
CCn1c(C(C)NC(=O)c2ccc(Cl)cc2)n[nH]c1=S (stereo not drawn)	0.4	-2.6	3	9.8	1	1.3	-1%	2
Cc1nn(-c2cc(N3CCCCCC3)ccc2[N+](=O)[O-])c(=O)c2ccccc12	1.1	/	25	-1.4	-8	2.9	6%	-5
COc1ccc(NC(=O)CN2CCN(C(=O)N3CCOCC3)CC2)cc1	1.1	-3.4	-3	5.2	-5	0.3	-2%	18
O=C(O)c1ccc(N=Cc2nc(-c3ccco3)oc2O)cc1	-0.8	-0.7	-12	?	-4	9.6	-1%	-5
COc1ccc(-n2cc(-c3ccccc3)[n+]3c2CCCCC3)cc1	-0.6	-0.2	81*	2.4	99*	4.4	-8%	1
O=C(NCc1ccc2c(c1)OCO2)c1ccco1	-0.8	0.3	-6	-1.3	4	-9.2	/	5
CCc1ccc(-n2c(=O)c3c(C)c(C(=O)N(C)C)sc3n(CC(=O)NCc3ccco3)c2=O)cc1	-0.2	/	-1	-8.4	1	5.1	6%	-32
CCn1c(SCC(=O)Nc2sc3c(c2C#N)CCCC3)nnc1-c1ccco1	-0.5	/	55*	6.1	3	3.8	3%	-7
Cc1ccc([N+](=O)[O-])cc1S(=O)(=O)Nc1cccc(-c2ccc(N3CCOCC3)nn2)c1	-9.4	-1.3	41	-3.6	11	4.0	3%	13
COc1ccc2c(c1)[C@H]1[C@H](CO2)[C@H](c2ccccc2)[C@]2(C)C(=O)N[C@H](C)C(=O)N12	0.6	-18	/	/	-3	4.0	/	/
O=C1CC(c2ccco2)CC(O)=C1C=Nc1cc(Cl)cc(Cl)c1 (stereo not drawn)	1.3	/	-13	0.1	-31	0.4	4.1µM*	-16
Cc1cc(C)cc(C(=O)NCC(=O)OCC(=O)N2c3ccccc3NC(=O)C2(C)C)c1	0.5	-0.4	-1	2.5	0	1.3	/	14
COC(=O)[C@@]12CCCN1[C@H](c1ccc(-c3ccc(OC)cc3)c(OC)c1)[C@H]1C(=O)N(C)C(=O)[C@H]12	0.4	2.3	-11	0.6	-1	2.2	/	-3
COc1ccc(-c2nnc(SCc3c(C)noc3C)n2N)cc1OC	0.1	/	-6	1.1	-1	-7.8	25%	-23
CC(C)C1CC(c2ccccc2)(C(CN)CO)CCO1 (stereo not drawn)	-1.0	1.5	-37	5.2	3	-0.8	5%	5
CCc1cc2cccc(C)c2nc1SCC(=O)Nc1cc(C)on1	0.6	-3.5	-2	?	2	4.9	/	-19
O=c1[nH]nnc2c1sc1nc(N3CCOCC3)c3c(c12)CCCC3	1.0	-30	31	-3.4	14	-0.9	/	?
CN(Cc1c(C(=O)N/N=C/c2ccccc2)nnn1-c1nonc1N)c1ccccc1	0.2	-6.6	2	7.0	-3	-3.2	/	/
COc1ccc(Cl)cc1N(C(C)=O)c1nc(C)cc(C)c1C#N	0.6	0.3	-7	7.3	3	12	-3%	7
CCCCc1nc2ccccc2[nH]1	-0.1	0.5	-6	?	-3	-4.2	-2%	-1
Cc1ccc(NC(=O)C2CCN(S(=O)(=O)c3cc([N+](=O)[O-])ccc3Cl)CC2)nc1	-0.5	5.7	/	/	4	11	/	/
Cn1c(-c2nnn(-c3ccc(F)cc3)n2)cc2ccccc21	-6.3	1.4	6	2.6	-1	-0.3	/	-18
O=C1CCCN2N=C(SCC(=O)Nc3ccc(Br)cc3)SC2=N1	0.8	-2.3	-1	3.9	-6	-1.0	/	2
CCCCNC(=O)c1cc2c(=O)n3cccc(C)c3nc2s1	-9.0	-2.5	-2	-2.1	-2	2.6	2%	15
COC(=O)/C=C/c1ccc(-n2ccnc2)cc1	0.1	-5.6	-11	-5.1	-2	2.2	-4%	0

Complete entries, looked up by structure. Screens in order: Bfl-1 A1 inh, AF4-AF9 inh, T cruzi inh, RanGTP-Impb inh, Beta cell apopt, LANA-H2A inh, Vif TR-FRET, Calb FLC
CCCCN(C(=O)C(C)N1C(=O)c2ccccc2C1=O)c1c(N)n(CCCC)c(=O)[nH]c1=O (stereo not drawn) across the screens: -0.9, -0.4, /, /, -1, 1.9, -7%, /
Cc1ccc(NC(=O)C2CCN(S(=O)(=O)c3cc([N+](=O)[O-])ccc3Cl)CC2)nc1 across the screens: -0.5, 5.7, /, /, 4, 11, /, /

(further entries)
SMILES	Bfl-1 A1 inh	AF4-AF9 inh	T cruzi inh	RanGTP-Impb inh	Beta cell apopt	LANA-H2A inh	Vif TR-FRET	Calb FLC
Cc1cc(C)nc(NN2C(=O)/C(=C/c3ccccc3)SC2=S)n1	-0.4	/	-1	-10	-3	-0.8	10%	-11
CN(CCO)c1nc(N)c(C#N)c(CC#N)c1C#N	0.1	-7.4	-10	4.8	-8	-2.3	-1%	-6
O=C(/C=C/c1ccc([N+](=O)[O-])cc1)NCc1ccco1	-0.3	-8.0	0	1.4	-8	1.4	/	-5
COc1ccc(-c2nc(-c3ccc(C(=O)O)cc3)no2)cc1	-9.3	1.9	-20	3.8	0	2.0	/	-2
Cn1cnnc1SCC(=O)Nc1ccccc1F	0.2	-1.4	-24	-3.3	-4	-6.4	16%	-1
CCS(=O)(=O)c1ccc(O)c(NC(=O)Nc2cccc3ccccc23)c1	0.2	-1.0	-24	0.0	1	-6.3	6%	-7
CCOc1ccc(NC(=O)C/C(C)=N/NC(=O)COc2ccc(Br)cc2C)cc1	-0.3	2.3	-25	-0.5	5	0.5	-4%	1
Cc1cc(C(F)F)n2nc(C(=O)Nc3ccc(S(=O)(=O)N4CCCCCC4)cc3)nc2n1	1.3	/	6	4.7	/	-3.7	3%	4
COC(=O)[C@]1(Cc2ccccc2)N[C@H](CN(C)C(=O)Nc2ccc(F)cc2)[C@@H]2C(=O)N(C)C(=O)[C@@H]21	0.0	0.2	/	/	3	-132	0%	/
CCC(c1nnnn1CCc1ccccc1)N1CCN(c2ccc(OC)cc2)CC1 (stereo not drawn)	-2.6	/	4	3.0	/	4.8	5%	0
COc1ccc(C(C(=O)NC(C)(C)C)N(C(=O)CCC(=O)Nc2cc(C)on2)c2ccccc2F)cc1 (stereo not drawn)	0.3	1.2	13	1.6	0	-8.8	/	-4
CCOc1ccc(CCNC(=O)CS(=O)(=O)Cc2nc(-c3ccc(OC)cc3)oc2C)cc1	0.6	-0.7	8	-0.7	1	1.3	/	-6
CCS(=O)(=O)n1nc(-c2ccccc2)nc1NCc1ccco1	0.4	/	-3	7.2	-6	-1.6	0%	8
Cc1ccccc1NC(C)C(=O)N/N=C/c1ccccc1OCc1cccc(Br)c1 (stereo not drawn)	-0.5	/	30	-0.5	12	-1.0	-1%	0
CCOc1ncccc1C(=O)Nc1cc(S(=O)(=O)N(CC)CC)ccc1N1CCOCC1	0.9	-0.1	/	/	9	-3.4	/	/
O=C(N/N=C/c1ccc(O)cc1)Nc1cccc2nsnc12	-0.1	4.3	62*	4.6	-37	3.9	-9%	13
Cc1ccc2nc3n(c(=O)c2c1)CCCCC3	-0.9	/	0	3.5	-1	3.7	1%	1
CSc1ccccc1NC(=O)COc1nsnc1N1CCOCC1	-1.4	1.4	-4	0.9	-2	-8.9	/	3
NC(=S)N=Nc1c(O)n(Cc2ccc(F)cc2)c2ccccc12	0.1	/	46	-3.0	20	2.0	14%	1
CCCCn1nnnc1SCC(=O)c1cc(Cl)ccc1OC	-0.2	/	1	-0.1	-3	3.5	7%	2

Bioassay records as filed in PubChem BioAssay.
